Choline anaer gr – growth inhibitors of anaerobic choline-fed gram-negatives, minimal medium, absorbance. Gram-negative bacterium anaerobic choline minimal medium; active compounds read low; many inactives read as strong as hits in the columns shown. 0.2% of 55,000 active. AID 1963822, 2024. calls only;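 active = growth z-score on choline under -2 at 7 or 20 h with little or no fall on glycerol, limits in tiers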;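 also: stock transfer was 300 nL into about 50 µL; the organism is E. coli; final concentration not given here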
Choline anaer gr early – second read-out of Choline anaer gr, no call of its own (marks repeat the call); z-score; measured here: choline growth z-score, timepoint 1;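 score of optical density at 7 h as mean of two plates; lower means less growth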
Starred values were filed as active, the others as inactive; i = inactive; & = joins results of further samples. This is a subset; the hit share may differ from the screen's.

Values in the order – Choline anaer gr early	Choline anaer gr
- COC(=O)c1sccc1NC(=O)c1cc2c(CO)cnc(C)c2oc1=O
→ -0.69	i
- COc1cccc(OC)c1C(=O)Nc1cccc(-c2cn3ccsc3n2)c1
→ 0.12	i
- COc1ccc(NC(=O)CN2C(=O)CCn3nc(-c4cccn4C)cc32)cc1OC
→ -0.3	i
- CCOC(=O)c1cc(C(=O)Nc2ccccc2F)c(=O)[nH]c1C
→ 0.3	i
- O=C(CNS(=O)(=O)c1ccc(F)cc1)N1CCCC1c1nc(-c2ccc(Cl)cc2)no1 (stereo unspecified)
→ 0.02	i
- Cc1cc(C)n(-c2nc(CC(=O)Nc3ccc(F)cc3)cs2)n1
→ 0.47	i
- CCc1cc(C(Nc2nc(C)cc(C)n2)c2ccsc2)c(NC(=O)c2ccccc2)s1 (stereo unspecified)
→ 0.64	i
- COc1ccc(S(=O)(=O)N2CCN(C)CC2)cc1-c1noc(C)n1
→ 0.04	i
- CCOC(=O)c1cnc(NC2CC2)c2ccccc12
→ -0.52	i
- CCn1c(=O)c(-c2noc(C(=O)NC3CCCC3)n2)nn(-c2ccc(F)cc2)c1=O
→ -1	i
- O=C1c2ccccc2CCC1CNCCc1ccc(O)cc1 (stereo unspecified)
→ -2.4	i
- Cn1c(=O)n(-c2ccc(F)cc2)c2nc(-c3cccnc3)nc(C(N)=O)c21
→ -0.86	i
- COc1cccc(-c2nc3nc(C)c(CCC(=O)NC4CCCCC4)c(C)n3n2)c1
→ 0.75	i
- CN(CCc1noc(-c2ccc(C(=O)N3CCCC3)cc2)n1)C(=O)C1CC1
→ -0.04	i
- CCc1ccc(NC(=O)C2CCCN(S(=O)(=O)c3cc(-c4noc(C)n4)sc3C)C2)cc1 (stereo unspecified)
→ 1.2	i
- O=C1COc2cc(S(=O)(=O)N3CCCC(C(=O)N4CCc5ccccc5C4)C3)c(Cl)cc2N1 (stereo unspecified)
→ -0.95	i
- CCCCNC(=O)CN1C(=O)C2CCCC2=Nc2cc(C)c(C)cc21 (stereo unspecified)
→ 0.48	i
- O=C(CCn1cnc2ccccc2c1=O)N1CCc2ccccc21
→ -0.75	i
- Cc1csc(NC(=O)CSc2ncnc3ccccc23)n1
→ 0.21	i
- CCc1onc(C)c1C1CCCN1Cc1ccccc1OC (stereo unspecified)
→ -0.94	i
- O=S(=O)(Nc1ccccc1-c1ccc2ccccc2n1)c1cccc(F)c1
→ 2	i
- O=S(=O)(c1ccc(F)cc1F)N1CCc2nc[nH]c2C1
→ -3.2	i
- CCCNC(=O)N1CCc2c(c(-c3nc(C4CC4)no3)nn2C)C1
→ -0.21	i
- Cc1sc(-c2nnc(C3CC3)o2)cc1NC(=O)C1CC1
→ -0.03	i
- COC(=O)c1cc(S(=O)(=O)N2CCCC2C(=O)Nc2cccc(OC)c2)cn1C (stereo unspecified)
→ -1.3	i
- O=C(Cn1c(=O)ccc2cc(S(=O)(=O)N3CCCC3)ccc21)N1CCN(c2ccc(F)cc2)CC1
→ -0.08	i
- O=C(NCc1ccccc1)C1CCCN(c2nc3cccnc3n(Cc3ccccc3)c2=O)C1 (stereo unspecified)
→ -0.5	i
- COc1ccnc(CS(=O)c2nc3ccc(OC(F)F)cc3[nH]2)c1OC (stereo unspecified)
→ 0.22	i
- Cc1ccc(S(=O)(=O)Nc2cccc(C(=O)N3CCC(C(=O)NCCC(C)C)CC3)c2)c(C)c1
→ 0.05	i
- O=C(CSc1nc2ccccc2nc1Cc1ccccc1)N1CCNC1=O
→ 0.99	i
- CC(C)c1ccc(S(=O)(=O)N2CCCC2c2nc(-c3ccc(F)cc3)no2)cc1 (stereo unspecified)
→ 2.3	i
- COc1ccc(CNC(=O)CCCN2C(=O)c3ccccc3Sc3ncccc32)cc1
→ -0.58	i
- Cc1cc(NCCN(C)C)n2nc(C(F)(F)F)c(-c3ccc(F)cc3)c2n1
→ -0.64	i
- CCN1CCCC1CNC(=O)CN1C(=O)CN(C(=O)Nc2ccc(C)cc2)c2ccccc21 (stereo unspecified)
→ -0.55	i
- Cc1ccccc1Nc1c(-c2ccc(F)cc2)nc2cnccn12
→ 1.1	i
- O=C(NCCCN1CCOCC1)C1CCN(c2cnc(N3CCSCC3)nc2)CC1
→ 0.88	i
- CC1CCN(c2ccc(N3CCC(C(=O)N4CCN(C5CCCCC5)CC4)CC3)nn2)CC1
→ -0.81	i
- O=S(=O)(c1ccc2c(c1)OCCO2)N1CCN(c2ncnc3c2nnn3-c2ccccc2)CC1
→ -0.05	i
- Cn1c(O)c(C2=NNC(c3ccc(Br)cc3)C2)c(=O)n(C)c1=O (stereo unspecified)
→ 0.99	i
- COc1cccc(NC(=O)N2CCN(c3nc4cccnc4s3)CC2)c1
→ -1.4	i
- COc1ccc(-c2nc3c(s2)CN(S(=O)(=O)c2ccc(Br)cc2)CC3)cc1
→ 1.4	i
- O=C(Cn1ccn2nc(-c3ccccc3)cc2c1=O)NCc1ccc2c(c1)OCO2
→ 0.74	i
- COc1ccc(-c2cc3c(=O)[nH]nc(SCc4ccc(C)cc4)n3n2)cc1
→ -1.5	i
- CCOC(=O)c1c(C)c(CCC(=O)N2CCN(c3ccccn3)CC2)c(C)n1C
→ 0.64	i
- Cc1c(S(=O)(=O)N2CCC(C)CC2)c(C)n(C)c1-c1nnc(C2CCC2)o1
→ 0.22	i
- CCC(=O)Nc1cccc(-c2noc(C3CCCN(C(=O)c4ccc(Br)cc4)C3)n2)c1 (stereo unspecified)
→ 0.54	i
- Fc1ccc(-c2nc(-c3ccc4c(c3)ncn4CCN3CCOCC3)no2)cc1
→ 1.2	i
- O=C(Nc1cc(F)cc(F)c1)c1cccc(-c2cc(N3CCCC3)ncn2)c1
→ -2	i
- Cc1ccc(-c2nc(CN3CCCC(C(=O)Nc4cc(Cl)ccc4C)C3)no2)cc1 (stereo unspecified)
→ -1	i
- Nc1cccc(N2CCn3c(nc4cc(Cl)ccc43)C2)c1
→ -0.32	i
- Cc1ccc(-c2cn3cccnc3n2)cc1NC(=O)C1c2ccccc2Oc2ccccc21
→ -0.7	i
- CNC(=O)N1CCc2cc(S(=O)(=O)Nc3ccc(F)cc3)ccc21
→ -0.37	i
- CCOC(=O)c1ccc(NC(=O)c2c(C)oc3ccc(OCc4ccccc4)cc23)cc1
→ 0.57	i
- O=c1ccc(-c2cccc(Cl)c2)nn1CCc1nc(-c2ccccc2)no1
→ 2	i
- C=C1C[C@@]23CC[C@H]4[C@@](C)(CCC[C@@]4(C)C(=O)O)[C@@H]2CC[C@]1(O)C3
→ 0.06	i
- CCOC(=O)c1cnc(SC(CC)C(=O)Nc2c(C)cc(C)cc2C)nc1N (stereo unspecified)
→ 0.53	i
- Cn1c(=O)c2ccn(CC(=O)N3CCC(C(N)=O)(N4CCCCC4)CC3)c2n(C)c1=O
→ -1.3	i
- CC(C)CNC(=O)c1ccc2c(=O)n(-c3ccc(F)cc3)c(SCC(=O)c3c[nH]c4ccccc34)nc2c1
→ 1.3	i
- CCN1C(=O)c2cc(C(=O)NC)nn2CC1(C)C(=O)NC1CCCC1 (stereo unspecified)
→ -0.46	i
- O=S(=O)(Nc1cccc(-c2ccc3ccccc3n2)c1)c1ccccc1Cl
→ 0.92	i

(listing goes on)
Values in the order – Choline anaer gr early	Choline anaer gr
- COCCCNC(=O)NCCC1CCN(C(=O)Nc2cccc(Cl)c2)CC1
→ 0.6	i
- O=C(C1CC(=O)N(c2ccc3c(c2)CCN3C(=O)C2CC2)C1)N1CCC2(CC1)OCCO2 (stereo unspecified)
→ -1.8	i
- CN(Cc1ccccc1)C(=O)c1c(-c2ccccc2)nnc2ccccc12
→ -0.34	i
- CCOC(=O)c1ccc(NC(=O)N2Cc3ccccc3C(N3CCOCC3)c3ccccc32)cc1 (stereo unspecified)
→ -1.4	i
- O=C(c1nc(-c2csc(S(=O)(=O)NCCC3=CCCCC3)c2)no1)N1CCCC1
→ 2.5	i
- COC(=O)c1cccc(NC(=O)CSc2nccc(N3CCN(c4ccc(OC)cc4)CC3)n2)c1
→ 0.26	i
- CCc1cc(C2CCCN2C(=O)NCC2CCCO2)on1 (stereo unspecified)
→ -1.9	i
- COc1cccc(CNC(=O)c2cc(-c3ccc(F)cc3)[nH]c2C)c1
→ 0.85	i
- C=CC1(C)CC(=O)C2(O)C(C)(O1)C(OC(C)=O)C(O)C1C(C)(C)CCC(O)C12C (stereo unspecified)
→ 0.19	i
- Cn1c(=O)n(C)c2cc(NC3=C(C(=O)Nc4ccc(F)cc4F)S(=O)(=O)c4ccccc43)ccc21
→ -0.53	i
- NC(=O)N1c2ccccc2CC(=O)c2ccccc21
→ 0.63&0.38&-0.09	i
- COc1cccc(-c2nc(C)c(-c3ccc(SCc4cccnc4)nn3)s2)c1
→ -0.19	i
- CCOC(=O)C1CCN(c2c(NC3CCCC3)c(=O)c2=O)CC1
→ -0.54	i
- O=C(c1ccc2c(c1)CCCN2S(=O)(=O)c1ccccc1)N1CCN(c2ccccc2F)CC1
→ 0.05	i
- O=c1c2ncccc2n(Cc2ccc(Br)cc2)c(=O)n1Cc1ccc2c(c1)OCO2
→ 0.14	i
- Cc1ccc(-c2cc(C(F)(F)F)n3ncc(C(=O)OCC4CCCO4)c3n2)cc1 (stereo unspecified)
→ 1.3	i
- O=C(NC1CCCN(c2cc(N3CCCC3)ncn2)C1)c1ccoc1 (stereo unspecified)
→ -0.3	i
- OC(COc1ccccc1Cl)Cn1c(C2CC2)nc2ccccc21 (stereo unspecified)
→ 0.06	i
- CCn1nccc1C1CCCN1C(=O)c1c(Cl)cnn1C (stereo unspecified)
→ -0.62	i
- CC(=O)Nc1ccc(-c2cn3ccc(C)nc3n2)cc1
→ -1.3	i
- Cn1c(=O)sc2cc(NS(=O)(=O)c3ccc4c(c3)n(C)c(=O)n4C)ccc21
→ 0.75	i
- CNC(=O)c1c(NC(=O)c2cc(-c3ccc4c(c3)CC(C)O4)on2)sc2c1CCCC2 (stereo unspecified)
→ 0.41	i
- COc1ccc(-c2nc3c(s2)CN(S(=O)(=O)c2cccc4nsnc24)CC3)cc1OC
→ -0.41	i
- COc1ccc(C2(c3nc(-c4ccc5c(c4)nnn5CCC(=O)N4CCCC4)no3)CC2)cc1
→ 1.4	i
- CCOC(=O)c1ccc(NC(=O)c2nn(-c3ccccc3C)c(=O)cc2OC)cc1
→ -1.6	i
- CCOC(=O)c1cnc2c(-c3ccccc3)c(COc3ccccc3)nn2c1C
→ 1.4	i
- O=C(COc1ncnc2onc(-c3ccccc3)c12)NCc1ccccc1Cl
→ 0.33	i
- CC(=O)Nc1ccc2nc(N3CCC(C(=O)N4CCN(C5CCCCC5)CC4)CC3)cc(C)c2c1
→ -1.1	i
- O=C(c1ccc(F)c(F)c1)N1CCN(C(=O)c2cc3cc(Br)ccc3[nH]2)CC1
→ -0.57	i
- O=C(NCCn1c(C(F)(F)F)nc2cccnc21)Nc1ccc(Br)cc1
→ -0.51	i
- Cc1cc(N2CCOCC2)nc(N2CCN(S(=O)(=O)c3cc(C)c(C)cc3C)CC2)n1
→ 0.44	i
- c1csc(-c2cc(CN3CCOCC3)[nH]n2)c1
→ -0.71	i
- O=C(NC1CCS(=O)(=O)C1)c1cc(-c2cccnc2)nc2ccccc12 (stereo unspecified)
→ -1.4	i
- c1ccc(Cn2cc3c(-c4ccccc4)nnc-3c3cc4c(cc32)OCCO4)cc1
→ 0.07	i
- O=C(NCCC1=CCCCC1)C1CCN(c2ncc(-c3ccccc3)cn2)CC1
→ -0.73	i
- CCS(=O)(=O)N1CCN(C(=O)c2nsc3ccc(C)cc23)CC1
→ -0.83	i
- CC1(C)CN(C(=O)C2CC2)c2ccc(S(=O)(=O)N3CCN(c4ccccn4)CC3)cc21
→ 0.57	i
- CC(C)c1cc(C(=O)N2CCCC2c2cc(C(C)C)on2)no1 (stereo unspecified)
→ 0.01	i
- Cc1ccc(C(Nc2nc(C)cc(C)n2)c2c(NC(=O)c3ccccc3)sc(C)c2C)cc1 (stereo unspecified)
→ 0.49	i
- Nc1ncnc2c1ncn2[C@@H]1O[C@H](CO)[C@@H](O)[C@@H]1O
→ 0.02&0.53	i
- CCN(CC)CCCNC(=O)C1CCCN(C(=O)c2nnc(C(=O)Nc3ccc(F)cc3)s2)C1 (stereo unspecified)
→ -2.2	i
- COc1ccc(NC(=O)CC2CCN(C(=O)c3cn(-c4ccccc4)nc3-c3ccccc3)CC2)cc1
→ 0.85	i
- Cc1ccc(C(=O)Nc2ccc(-c3ccc4ccccc4n3)cc2)cc1
→ -0.69	i
- Cc1cc(C)c2c(=O)cc(CSc3nnc(-c4cccc(F)c4)n3C)[nH]c2c1
→ -0.8	i
- CCc1c(C)sc2c1CCN(C(=O)Nc1ccccc1C(=O)OC)C2c1ccccc1 (stereo unspecified)
→ 0.64	i

Entries listed so far containing an aryl thioether with sulfur outside any ring, in the order listed:
Values in the order – Choline anaer gr early	Choline anaer gr
- Cc1csc(NC(=O)CSc2ncnc3ccccc23)n1
→ 0.21	i
- O=C(CSc1nc2ccccc2nc1Cc1ccccc1)N1CCNC1=O
→ 0.99	i
- COc1ccc(-c2cc3c(=O)[nH]nc(SCc4ccc(C)cc4)n3n2)cc1
→ -1.5	i
- CCOC(=O)c1cnc(SC(CC)C(=O)Nc2c(C)cc(C)cc2C)nc1N (stereo unspecified)
→ 0.53	i
- CC(C)CNC(=O)c1ccc2c(=O)n(-c3ccc(F)cc3)c(SCC(=O)c3c[nH]c4ccccc34)nc2c1
→ 1.3	i
- COC(=O)c1cccc(NC(=O)CSc2nccc(N3CCN(c4ccc(OC)cc4)CC3)n2)c1
→ 0.26	i
- COc1cccc(-c2nc(C)c(-c3ccc(SCc4cccnc4)nn3)s2)c1
→ -0.19	i
- Cc1cc(C)c2c(=O)cc(CSc3nnc(-c4cccc(F)c4)n3C)[nH]c2c1
→ -0.8	i

(listing goes on)
Values in the order – Choline anaer gr early	Choline anaer gr
- COC(=O)CC1=CC(SCC(=O)Nc2ccc3c(c2)OCO3)=Nc2ccccc2N1
→ 0.43	i
- COc1cccc(-n2nnc(-c3nc(-c4ccccc4OC)cs3)c2N)c1
→ -0.67	i
- CS(=O)(=O)N1CCC(C(=O)N2CCCCC2)Oc2ccccc21 (stereo unspecified)
→ 1.3	i
- Cc1ccccc1N1C(=O)N(Cc2ccc(C(C)(C)C)cc2)c2ccccc2S1(=O)=O
→ -0.28	i

Screening data from PubChem BioAssay.
